Source: PubChem (National Center for Advancing Translational Sciences (NCATS))
Menin MLL FP FL: qHTS Assay for Inhibitors Targeting the Menin-MLL Interaction in MLL Related Leukemias: Competition With Fluorescein Labeled MLL-derived Peptide. AID 1766, 2009. 290,000 tested, under 10 active. FP activity change, % at 61.4 µM. Fluorescence polarization, fluorescein-MLL peptide displacement from menin; inconclusive = falling polarisation curve, or a change in total fluorescence; inactive = total fluorescence flat and polarisation flat or rising; no compound was filed as active; the % refers to the polarisation; negative = inhibition;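 note: % of control where 0% means no effect; inhibitors lower the polarisation; unlabelled MLL peptide was the positive control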
Starred values were filed as active, the others as inactive; ? = inconclusive; & = joins results of further samples; [ ] = dose if it differs, or a comment.

SMILES	Menin MLL FP FL
Cc1ccc(S(=O)(=O)N[C@@H](CCc2ccccc2)CC(=O)C(C)(C)C)cc1	-0.9[11.7 µM]
C[C@@]12CCC(OC(=O)c3ccccc3)CC1CCc1ccccc12 (stereo not given in full)	-0.6
CCCCNC(=O)C(c1ccc(OCC(=O)OC)c(C(=O)OC)c1)N(CCc1ccccc1)C(=O)CCCCCN1C(=O)NC(c2ccc(-c3ccccc3)cc2)C(C(=O)OCc2ccccc2)=C1C (stereo not given)	1.0&1.6
CCCCCCCCCCCCCCC(C(=O)O)C(O)(CC(=O)OC)C(=O)O (stereo not given)	-13
Nc1ccn([C@@H]2O[C@H](CO)[C@@H](OP(=O)(O)O)[C@H]2O)c(=O)n1	?
COCC(=O)Nc1ccc(S(=O)(=O)Nc2ncccn2)cc1	0.1
O=C(CNC(=O)c1ccccc1)NCCc1ccc(O)c(O)c1	-3.0
C=CCC1(c2ccccc2)Oc2ccccc2-c2nc3cc(Cl)c(Cl)cc3nc21 (stereo not given)	-3.9&0.5[11.7 µM]
COc1cc(NC(=O)O[C@@H]2C(=O)c3cc(Br)ccc3O[C@H]2c2ccc3c(c2)OCO3)cc(OC)c1OC	25
COc1ccc2c(c1)O[C@@H](c1ccc3c(c1)OCO3)[C@H](O)C2=O	-6.5
CNC(CC(=O)O)C(=O)O (stereo not given)	-6.4
COc1ncc2nc(-c3cn(C)c4ccccc34)c(=O)n(Cc3ccc(F)cc3)c2n1	?
COc1ccc2c(c1)C(=O)[C@@H](OC(=O)N[C@H]1CCCc3ccccc31)[C@H](c1ccc(OC)c(Br)c1)O2	0.5
O=C(Nc1nccs1)c1c(O)c2cccc3c2n(c1=O)CCC3	1.8
CCC(=O)N1CC2(CC(c3cccc(NC(=O)COc4ccc(Cl)cc4)c3)=NO2)C[C@@H]1C(N)=O (stereo not given in full)	0.6
CC1(C)OCC([C@H](O)C2=CCCCC2=O)CO1	-0.7
CCCCCCCC/C=C\C/C=C\C=C\C(O)CCCC(=O)O (stereo not given)	2.4
CC(=O)N[C@@H](CC(=O)O)C(=O)N[C@@H](CCC(=O)O)C(=O)O	?
CC(C)CN1CCC2(CC1)CCN(S(=O)(=O)c1ccccc1)CC2	-11
Cc1cc(O)cc(O)c1C(=O)O	-9.6

Looked up by structure from the list above (5):
SMILES	Menin MLL FP FL
Cc1cc(O)cc(O)c1C(=O)O	-9.6
C[C@@]12CCC(OC(=O)c3ccccc3)CC1CCc1ccccc12 (stereo not given in full)	-0.6
CC(=O)N[C@@H](CC(=O)O)C(=O)N[C@@H](CCC(=O)O)C(=O)O	?
O=C(CNC(=O)c1ccccc1)NCCc1ccc(O)c(O)c1	-3.0
COCC(=O)Nc1ccc(S(=O)(=O)Nc2ncccn2)cc1	0.1

(listing goes on)
SMILES	Menin MLL FP FL
C=C1C[C@@]23C[C@]1(O)CC[C@@H]2[C@]12C=C[C@@H](O)[C@](C)(C(=O)O1)[C@H]2[C@H]3C(=O)O	-0.4[24.8 µM]
COCCn1c(=O)cnc2cnc(Oc3cccc(Cl)c3)nc21	10
COc1ccc(C(C)C(=O)c2ccc(O)cc2O)cc1 (stereo not given)	1.4
CC(=O)NC[C@H]1CN(c2ccc(N3CCOCC3)c(F)c2)C(=O)O1	0.6
COC(=O)C1C2CC3c4[nH]c5cc(OC)ccc5c4CCN3CC2CC(OC)C1OC (stereo not given)	?
N#Cc1cccc(-c2nc(NCCN3CCOCC3)c3ccccc3n2)c1	-2.9
COc1ccc(-c2nnc3n2N=C(c2ccccc2OC)CS3)cc1	1.1
CC(=O)OCC1O[C@@H](O[C@@H]2C[C@H]3C(C)(C)[C@H](OC(C)=O)CC[C@]3(C)[C@H]3CC[C@]45C[C@]4(CC[C@H]5[C@@H](C)C[C@@H](O)[C@H](O)C(C)(C)O)[C@@]32C)[C@H](O)[C@@H](O)[C@@H]1O (stereo not given in full)	-2.2
Cc1ccc(C(=O)Nc2cc(Cl)ccc2OC(=O)c2ccc(C)cc2)cc1	15
O=C(NCCCN1CCCC1)c1ccc(Cn2c(=S)[nH]c3ccc(Br)cc3c2=O)cc1	2.4
O=c1[nH]c2cc3c(cc2cc1CN(CCc1ccccc1)Cc1nnnn1C1CCCC1)OCCO3	?
O=C(NCCc1ccccc1)c1ccncc1	0.0
COC(=O)c1c(-c2cc(OC)c(OC)c(OC)c2)c2ccnc(OCc3ncccn3)c2c(=O)n1Cc1ccnc(C)c1	2.2&-12
C[C@@H]1OC(OC2CC[C@@]3(C)C(CC[C@@]4(C)C3CC=C3C5CC(C)(C)CC[C@]5(C(=O)OC5OCC(O)[C@@H](O)[C@@H]5OC5O[C@@H](C)[C@H](O[C@H]6OC(CO)C(O)C(O)C6O)C(O)C5O)C(O)C[C@@]34C)C2(C)C)C(O)C(O)[C@H]1OC1OCC(O)C(O)[C@H]1O (stereo not given in full)	5.1
CS(=O)(=O)N1CCC2(CC1)CN(C(=O)Nc1cccc(F)c1)C2	2.0
O=C(CC(=O)NC1CCCCC1)N/N=C/c1ccccc1F	-1.5
COc1cccc(-c2nccc(NCc3cnc(C)cn3)n2)c1	-6.9
CCCCCCNC(=O)N[C@H](C(=O)NCCC[C@H]1CN2C(=NC[C@H]2C)N1CCC(c1ccccc1)c1ccccc1)C(C)O (stereo not given in full)	-1.4
Cc1nc(N2CCOCC2)c2nc(-c3ccccc3)n(C(C)CN(C)C)c2n1 (stereo not given)	0.1
CC(C)(C)OC(=O)NCCCC1=CC2=CC(=O)C(C)(OC(=O)CCc3ccccc3)C(=O)C2=CO1 (stereo not given)	5.9&3.5
FC(F)(F)c1ccccc1-c1cc(N2CCNCC2)ncn1	-2.3
O=C(c1ccco1)N1CCC2(CCCN(c3ccncc3)C2)CC1	-0.5
O=c1[nH]c(=O)n(C2CC(O)C(CO)O2)cc1F (stereo not given)	-2.9
CC(=O)O[C@]1(C(C)=O)CCC2C3CCC4=CC(=O)CCC4(C)C3(F)C(O)CC21C (stereo not given in full)	-6.1
Cc1ccc(C2CC(=O)Oc3cc(C)c(Cl)c(C)c32)cc1 (stereo not given)	4.0[94.6 µM]
CS(=O)(=O)N1CCC2(CCN(Cc3ccc(C#N)cc3)CC2)CC1	1.8
CCN1C(C)=C(C(=O)OC)C(c2ccccc2)N2C(=O)[C@](O)(C(=O)OC)CC(C#N)=C12 (stereo not given in full)	-1.1[11.7 µM]
CN(C)c1ncc2nc(-c3cc(F)cc(F)c3)c(=O)n(C3CC3)c2n1	0.4
Nc1nnc(-c2cc3c(ccc4ccccc43)oc2=O)s1	?
C/C=C\C1=C(CO)C(=O)[C@@H]2OC2C1=O (stereo not given in full)	6.4[11.7 µM]
CCNCCCNCCCNCCCNCC	?
COc1cccc(Cn2c(C3CC3)nc3ccc(NC(=O)c4ccco4)cc3c2=O)c1	0.8
Cc1ccc(S(=O)(=O)c2cc3c(=O)n4cc(C)ccc4nc3n(CC3CCCO3)c2=N)cc1 (stereo not given)	0.6
Cc1cc(C)c(C)c(S(=O)(=O)NCc2ccco2)c1C	-0.7
COCC1=C2c3ccccc3[C@H](C[N+](=O)[O-])C(C(=O)OC)(C(=O)OC)CC2C2C(=O)N(c3ccccc3)C(=O)C2C1 (stereo not given in full)	3.3&2.3
Cc1noc(C)c1-c1cncnc1N1CCN(C)CC1	-0.2
CCN1CCN(Cc2nc3c(c(=O)n(C)c(=O)n3C)n2Cc2ccccc2Cl)CC1	3.4
CC(=O)OCC1OC(C#CCC2CCCCC2)C=CC1OC(C)=O (stereo not given)	3.5[11.7 µM]
CC(=O)N1CCC2(CCN(Cc3ccc(C#N)cc3)CC2)CC1	0.0
COc1ccc(COC(=O)N/N=C2/C[C@@H](O)[C@@H](O)[C@@H]3[C@H]4C(=O)N(c5ccc(F)cc5F)C(=O)[C@@H]4CC[C@H]23)cc1	-0.5[11.7 µM]
Cn1cc(-c2nc3cnc(OCc4ccccc4)nc3n(CCC#N)c2=O)c2ccccc21	14
Cc1ccc2nc(N3C(=O)C(O)=C(C(=O)c4ccco4)C3c3ccc(O)cc3)sc2c1 (stereo not given)	1.0
CC(C)(C)c1ccc(/C=N/NC(=S)Nc2cccnc2)cc1	1.1
N[C@@H](Cn1c2c(c(=O)[nH]c1=O)CCC2)C(=O)O	-3.3
COc1ccc2[nH]cc(CCNc3ncnc4ccc(-c5ccccc5CN(C)C)cc34)c2c1	-21
CCS(=O)(=O)C1=NN2C(=N)/C(=C\c3ccc(OC(=O)c4ccco4)c(Br)c3)C(=O)N=C2S1	?
[N-]=[N+]=Nc1nc2c(N)ncnc2n1C1OC(CO)C(O)C1O (stereo not given)	-0.1
Cc1nc2cnc(OCc3ccccc3)nc2n(CCC#N)c1=O	4.7
COc1ccc2[nH]cc(CCNc3ncncc3-c3ccccc3Cl)c2c1	0.2
CCOC(=O)CSc1nc2ccc(N3CCOCC3)cc2c(=O)n1Cc1ccc2c(c1)OCO2	2.9
CCCCCCCCNC(=O)c1ccc(C)cc1	-2.6
O=C(c1ccco1)N1CCC2(CC1)CCN(C(c1ccccc1)c1ccccc1)CC2	-0.2
CC(C)=NO[C@@H](C)c1cn([C@@H]2COC[C@@H]2O)nn1	0.3[11.7 µM]
O=C(Nc1ccccc1Cl)c1cccc(NS(=O)(=O)c2ccccc2)c1	-0.4
O=C(O)c1cc(O)c2c(c1)[O][Bi][O]2	3.5
COCCn1c(=O)c(CCc2ccccc2)nc2cnc(N3CCNCC3)nc21	5.8
COc1cccc(-c2nc(N3CCNCC3)c3ccccc3n2)c1	1.4
O=C1Nc2ccccc2N2CCCC12 (stereo not given)	2.9
COC(=O)CC1Oc2cc3oc4c5ccccc5oc(=O)c4c3cc2O1 (stereo not given)	-3.7
C#CCOCCOCCOCCNc1nc(N2CCN(C(=O)[C@H](Cc3ccc(O)cc3)n3cc([C@@H](N)C(C)CC)nn3)CC2)nc(N2CCN(C(=O)[C@H](CCCCN)n3cc([C@@H](N)CC(C)C)nn3)CC2)n1 (stereo not given in full)	-3.2

Following part:
SMILES	Menin MLL FP FL
COc1cccc(-c2nnc3sc(-c4ccc(Cl)cc4)nn23)c1	6.4
COCCNc1nc(-c2ccccc2CN(C)C)nc2ccccc12	-3.5
CC12CC[C@@](C(=O)O)(C(=O)C1=O)C2(C)C	-0.3
O=C(c1ccco1)N1CCC2(CC1)CCN(c1ccncc1)CC2	-1.1
O=S(=O)(O)C1CCNCC1	1.8&1.0
Nc1nc2c([nH]c(=O)n2C2OC(CO)C(O)C2O)c(=O)[nH]1 (stereo not given)	-0.3
CCOC(=O)c1cc(OC(=O)c2cccnc2)n(-c2ccccc2)n1	4.3
CN(C)Cc1ccccc1-c1cc(-n2ccnc2)ncn1	3.0
COc1cc(O)c(C(=O)c2ccccc2)cc1S(=O)(=O)O	-2.4
COC(=O)N1CCC2(CCCN(C(=O)Nc3ccccc3)C2)CC1	-2.4
CNC1C(O)C(O)C(CO)O[C@H]1OC1C(O[C@@H]2C(O)C(O)[C@@H](N=C(N)N)C(O)C2N=C(N)N)OC(C)[C@]1(O)C=O (stereo not given in full)	-0.8
COC(=O)NC(CC(C)=O)c1cccc(C(F)(F)F)c1 (stereo not given)	2.4[11.7 µM]
CCNc1ncc2nc(-c3cccs3)c(=O)n(CCc3ccccc3)c2n1	?
O=C(N/N=C1/C[C@@H](O)[C@@H](O)[C@@H]2[C@@H]3C(=O)N(Cc4ccccc4)C(=O)[C@H]3CC[C@H]12)OCc1ccccc1	-8.6[11.7 µM]
N#CCCn1c(=O)c(-c2ccc(F)cc2)nc2cnc(Oc3cccc(Cl)c3)nc21	?
CCOC(=O)c1c(NC(=O)/C=C/c2ccc3c(c2)OCO3)sc(C)c1C	4.2
COc1ccc(COC(=O)N/N=C2/C[C@@H](O)[C@@H](O)[C@@H]3[C@@H]4C(=O)N(Cc5ccccc5)C(=O)[C@H]4CC[C@H]23)cc1	-0.5[11.7 µM]
C/C(CCN1CCCc2nc(C)c(C)cc21)=N\O[C@@H](C)CN1CCCCc2nc(C)c(C)cc21	-1.5[11.7 µM]
CSCC[C@@H]1NC(=O)[C@@H](NC(=O)[C@H](CCCNC(=N)N)NC(=O)[C@H](CC(C)C)NC(=O)[C@H](CCSC)NC(=O)[C@H](CC(=O)O)NC(=O)[C@H](Cc2ccccc2)NC(=O)[C@@H](N)CC(=O)O)CSSC[C@@H](C(=O)N[C@@H](Cc2c[nH]c3ccccc23)C(=O)N[C@@H](CCC(N)=O)C(=O)N[C@@H](Cc2ccc(O)cc2)C(=O)O)NC(=O)[C@@H]2CCCN2C(=O)[C@H](CCCNC(=N)N)NC(=O)[C@H](Cc2ccccc2)NC(=O)[C@H](C(C)C)NC(=O)[C@H](CCCNC(=N)N)NC(=O)CNC(=O)[C@H](CC(C)C)NC1=O	-0.1
O=P(O)(O)CP(=O)(O)O	-1.3

Exported bar-delimited: entries from further up
smiles | Menin MLL FP FL
O=S(=O)(O)C1CCNCC1 | 1.8&1.0
CCNc1ncc2nc(-c3cccs3)c(=O)n(CCc3ccccc3)c2n1 | ?
COc1cccc(-c2nnc3sc(-c4ccc(Cl)cc4)nn23)c1 | 6.4
Nc1nc2c([nH]c(=O)n2C2OC(CO)C(O)C2O)c(=O)[nH]1 (stereo not given) | -0.3

An excerpt, so the mix of outcomes need not match the whole.
